# D2 PAM – potentiates the human D2 dopamine receptor allosterically. P14416. DiscoveRx D2 beta-arrestin cells, luminescence, 90 min; 100% = 57 uM dopamine signal. potentiation, % (test concentration not listed). 360,000 compounds, 0.23% hits. AID 624464; active = potentiation of 50% or more; inconclusive = 30% to 50%; inactive = 30% or less;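 further: compound concentration not given in the record; tested on top of an EC20 dose of dopamine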
#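 PathHunter beta-arrestin assay in DiscoveRx D2 cells. Compounds were added with an EC20 of dopamine (50 nM final) for 90 min at 37 deg C. Luminescence was read 1 h after detection reagent, with 57 uM dopamine as the EC100 control.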
# CtBP-E1A blk – blocks the CtBP interaction with E1A | activity change, % (concentration not given with the values) | AID 651724 | 340,000 compounds, 0.49% hits | AlphaScreen GST-E1A/His-CtBP binding, 1536-well; active compounds read low; control for the full effect not named in the record; in the data active means activity change below about -65%; inconclusive means about -30% to -65%; inactive means above about -30%; further: on the % scale 0 is the no-effect control and ±100 the full control effect
#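 Steps: dispense buffer (Tris pH 8.0, NaCl 300 mM, TCEP 1 mM, BSA, Tween 20); add 5X protein mix (GST-E1A, His-CtBP, 125 nM each); pin 23 nL compound; 2 h at 37 °C, dark; add 5X beads (50 ug/mL); 1 h; read.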
# TRPV1 potentiator – human TRPV1 potentiation; potentiation, % at 8.33 µM; 320,000 compounds, 0.02% hits; TRPV1-expressing cells, Fluo-8 calcium influx, capsaicin EC20 potentiation; host cell line not named in the record; control for the full effect not named in the record; Q8NER1; active means potentiation above 80%; inconclusive means 30% to 80%; inactive means below 30%; further: 0% is about no effect
# Target sequence (Q8NER1 whole entry, looked up): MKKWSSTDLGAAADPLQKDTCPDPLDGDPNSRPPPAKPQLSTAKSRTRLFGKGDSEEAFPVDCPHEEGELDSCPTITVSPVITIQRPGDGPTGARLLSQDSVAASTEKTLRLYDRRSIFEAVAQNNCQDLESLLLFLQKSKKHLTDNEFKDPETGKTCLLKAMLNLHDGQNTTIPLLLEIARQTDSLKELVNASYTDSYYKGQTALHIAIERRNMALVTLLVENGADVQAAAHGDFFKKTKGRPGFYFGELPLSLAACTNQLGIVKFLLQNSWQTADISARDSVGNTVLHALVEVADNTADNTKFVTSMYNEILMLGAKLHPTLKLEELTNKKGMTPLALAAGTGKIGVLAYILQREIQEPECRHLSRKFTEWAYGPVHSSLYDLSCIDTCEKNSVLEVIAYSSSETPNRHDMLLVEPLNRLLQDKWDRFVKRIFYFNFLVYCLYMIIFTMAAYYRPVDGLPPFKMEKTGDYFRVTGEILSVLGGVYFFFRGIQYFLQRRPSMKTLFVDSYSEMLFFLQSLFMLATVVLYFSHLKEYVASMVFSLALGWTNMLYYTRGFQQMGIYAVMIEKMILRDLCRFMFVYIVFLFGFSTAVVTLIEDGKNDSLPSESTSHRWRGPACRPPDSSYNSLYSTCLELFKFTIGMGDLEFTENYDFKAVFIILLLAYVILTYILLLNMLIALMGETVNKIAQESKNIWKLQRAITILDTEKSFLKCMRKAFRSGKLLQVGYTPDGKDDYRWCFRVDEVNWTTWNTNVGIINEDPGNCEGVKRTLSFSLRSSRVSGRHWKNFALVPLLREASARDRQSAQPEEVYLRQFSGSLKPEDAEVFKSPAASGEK
#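 Cells expressing TRPV1 were dye-loaded with Fluo-8 and read kinetically: 10 s baseline, 3 min after compound (agonist portion), then 2 min after EC20 capsaicin (allosteric enhancer portion). Calcium-bound dye fluorescence at 480/520 nm.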
# D2 ag – activates the human D2 dopamine receptor; P14416; DiscoveRx PathHunter D2 beta-arrestin, luminescence, 90 min; 100% = 57 uM dopamine signal; activation, % (no concentration beside the values); 360,000 compounds, 0.084% hits; AID 624465; in the data active = activation above about 40%; inconclusive = about 15% to 40%; inactive = below about 15%; further: compound concentration not given in the record; the text of the record calls up to 30% inactive
#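 Agonist mode: compounds alone added to overnight-plated D2 PathHunter cells for 90 min at 37 C, with 57 uM final dopamine (EC100) defining full response. Beta-arrestin recruitment detected by chemiluminescent reagent, read after 1 h at ambient temperature.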
# Sfp PPTase inh – Sfp phosphopantetheinyl transferase inhibition | AID 1490 | Potency, µM, without a hit: max response, negative = inhibition, hits mostly inhibitors | Biochemical Sfp PPTase activity, qHTS | 310,000 compounds, 3.5% hits; active means well fitted inhibition curve with a large enough effect; inconclusive means small, poorly fitted or top-dose-only effect, or another doubt; inactive means no such curve, though single readings can be large or run the other way;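 further: the enzyme is Sfp with the accession as filed and its product quenches rhodamine fluorescence; potency means the concentration at half of the fitted maximal effect; 0% = enzyme reaction without inhibitor and -100% = no enzyme wells; top concentration of the series not given in the record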
#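 Sfp 15 nM + cpd, 15 min RT; start w/ rhodamine-CoA 5 uM, BHQ-2-YbbR 12.5 uM (final); 50 mM Hepes pH 7.6, 10 mM MgCl2, 0.01% NP-40, 0.01% BSA; read 525/598 nm at 0 and 30 min.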
# PINK1 modulator – PINK1 expression modulation; PINK1 immunofluorescence, high-content cytometry, 24 h; Potency, µM (highest dose often 76.6 µM), for inactives: at the top dose activation (PINK1 increase), hits mostly activators; 410,000 compounds, 0.2% hits; active = well fitted activation curve with a large enough effect; inconclusive = small, poorly fitted or top-dose-only effect; inactive = flat fitted curve, though single readings scatter; cell line not stated here;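 further: potency means the concentration at half of the fitted maximal effect; % of control where 0% means no effect; nearly all actives have a fitted effect of over 65% in size; a mitochondrial uncoupler was the plate control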
#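 Cells are seeded, rested 12 hours, then given compound at five concentrations or DMSO for 24 hours. After fixation, blocking and antibody staining, PINK1 amount and mitochondrial localization are scored; CCCP serves as control.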
# Six1-Eya2 inh – Six1/Eya2 interaction inhibition; Q15475+O00167; AlphaScreen GST-Six1/His-Eya2 binding, biochemical; active compounds read low; control for the full effect not named in the record; activity change, % (no concentration beside the values); 360,000 compounds, 0.56% hits; AID 651725; in the data active = activity change below about -65%; inconclusive = about -30% to -65%; inactive = above about -30%; further: on the % scale 0 is the no-effect control and ±100 the full control effect
#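 Compounds are tested against tagged Six1 and Eya2 proteins bridged by glutathione donor and nickel acceptor beads; after a one-hour incubation at 37 °C without light, AlphaScreen emission is recorded.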
# * hit, by the source's call; ? = inconclusive; . = no result given; & = joins results of further samples; [ ] = remark or other dose.
SMILES,D2 PAM,CtBP-E1A blk,TRPV1 potentiator,D2 ag,Sfp PPTase inh,PINK1 modulator,Six1-Eya2 inh
O=C(O)c1ccc(O)c(O)c1,-8,4,?,-3.7,?,0.8%,1
S=C(NCc1ccc(Cl)cc1Cl)NC1CCCCC1,-20,-9,-1,2.7,-6%,?,-1
CC(NC(=S)Nc1ccccc1)C1COc2ccccc2O1 (centres undefined),-15,3,0,0.2,10%,2.9%,-7
C=C(C)CSC1=C(C#N)C(c2ccccc2)CC(=O)N1 (centres undefined),-10,0,.,-1.2,.,-0.4%[38.3 µM],0
Cc1cccc(-c2noc(CCCC(=O)Nc3cccnc3)n2)c1,-10,-5,.,0.3,-12%,-0.5%,4
COC(=O)c1cc(NC(=O)CC2C(=O)NCCN2C(=O)c2ccc(F)cc2)cc(C(=O)OC)c1 (centres undefined),0,7,-7,3.6,7%,-5.8%[38.3 µM],-6
C/C(N)=C(/C#N)C(=O)CSc1ncnc2ccccc12,-13,-7,5,-3.6,-6%,-1.5%,-2
O=C(NCCCN1CCOCC1)c1ccc(S(=O)(=O)Nc2ccccc2F)cc1,6,-14,0,-2.3,.,1.0%,-14
CN(c1ccccc1)S(=O)(=O)c1cccc(NC(=O)c2nn(C)c(=O)c3ccccc23)c1,16,.,20,4.7,.,1.1%,-15
COc1cc(C(=S)N2CCOCC2)ccc1OS(=O)(=O)c1ccc(NC(C)=O)cc1,-5,-4,-2,2.1,2%,0.1%,6
O=C(O)c1cccc(N=NN2CCCCCC2)c1,-5,-14,-1,-5.8,-1%,0.3%,6
COc1ccc(/C=C2/C(=O)OCc3cc(OC)c(OC)cc32)c(OC)c1,-18,-21,5,1.1,5%,-0.1%,-7
Cc1ccc(S(=O)(=O)NCC(=O)OCC(=O)N2CCN(C(=O)c3ccco3)CC2)cc1C,-3,-2,-7,-9.1,.,2.4%,-1
O=C(Nc1ccc(NC(=O)c2cccc([N+](=O)[O-])c2)cc1)c1cccc([N+](=O)[O-])c1,-20,.,-23,-0.7,10%,3.8%,11
O=C(COC(=O)CNS(=O)(=O)c1ccc2ccccc2c1)Nc1ccc2c(c1)OCO2,-11,3,-2,-0.9,28%,-0.9%,0
CC1(Cc2ccccc2F)C(=O)Nc2c(Cl)ccc(Cl)c21 (centres undefined),-7,-3,.,6.1,.,5.5%,2
O=C(CN(C(=O)CCC(=O)Nc1nccs1)c1ccc(F)cc1)NCc1ccco1,-7,-5,9,-2.0,20%,-1.5%,-2
CC(=O)Nc1ccc(OCC(=O)NC(C)c2ccc(F)cc2)cc1 (centres undefined),-12,4,3,3.0,10%,-0.5%,-1
COCCN(Cc1ccccc1)C(=O)c1cccc(S(=O)(=O)N(C)c2c(C)n(C)n(-c3ccccc3)c2=O)c1,-19,2,-6,-3.6,.,2.7%,-1
CC1CN=C(N(Cc2ccccc2)C(=O)Nc2ccccc2)S1 (centres undefined),-1,5,-4,-3.1,3%,0.9%,7
COc1ccccc1NS(=O)(=O)c1cccc(C(=O)NNC(=O)c2ccc(=O)[nH]c2)c1,0,4,19,13,.,2.3%,7
COc1ccc(S(=O)(=O)NC(=O)C2(C)CCN2C(=O)Cc2ccc(C(C)(C)C)cc2)cc1 (centres undefined),-3,-3,.,-3.8,.,0.5%,-3
COc1ccc(C2(C)CC(=O)NC2=O)cc1 (centres undefined),-2,5,7,-0.7,13%,4.0%,5
Cc1ccnc(NC(=O)Cn2cc([N+](=O)[O-])cn2)c1,-3,-3,-2,-2.7,11%,1.9%,-3
CC1(C)CC1C(=O)Nc1ccc([N+](=O)[O-])cc1Br (centres undefined),1,-1,-13,-1.4,-1%,-0.9%,-17
O=C(Nc1ccccc1N1CCOCC1)c1cnccn1,-3,.,-6,-1.5,9%,0.1%,0
COc1ccc(C)cc1-n1c(SCC(=O)N2CCOCC2)nc2ccccc2c1=O,-7,-4,.,-1.5,.,0.4%,-2
COc1ccc2c(=O)c(-c3ccc(C)cc3)c(-c3ccccc3)oc2c1,0,-11,.,-0.7,.,0.9%,8
O=C(Nc1ccc(-c2csnn2)cc1)C1CC1,2,-5,-5,2.0,10%,0.4%,0
CCOC(=O)[C@@H]1[C@H]2COc3ccccc3[C@H]2N2C(=O)N(c3ccccc3)C(=O)[C@]12C,-18,1,-16,-0.4,6%,-0.1%,1
O=C(C1CC1)N1CCN(S(=O)(=O)c2ccc3c(c2)OCCO3)CC1,9,1,-2,-7.0,18%,-0.6%,12
O=C(O)c1ccc(S(=O)(=O)c2ccc3c(c2)C(=O)N(NC(=O)c2cccnc2)C3=O)cc1,-11,2,25,-1.9,-6%,0.4%,5
O=C(CCl)NC(Cc1ccccc1)c1ccccc1 (centres undefined),-3,-11,-7,-4.4,11%,1.5%,-1
COc1ccc(NC(=O)C2CCN(C(=O)Nc3ccc(C)cc3)CC2)cc1OC,-4,0,-3,3.0,2%,1.4%,5
O=C(Nc1ccc(F)cc1F)c1ccc(-n2cccn2)nc1,-9,-3,-29,-1.6,1%,2.5%,1
CC(=O)NC(=S)Nc1ccc(S(=O)(=O)N2CCOCC2)cc1,-3,.,6,1.2,14%,1.3%,0
COc1ccc(-c2cc3cc4c(cc3cn2)OCO4)cc1,-7,3,.,-2.3,.,7.3%,-1
CCOC(=O)c1c(C)nc2cc(C)cc(C)n12,-11,4,-7,-3.1,9%,-1.4%,3
Cc1ccc(SCc2cc(-c3ccc(Cl)cc3)no2)cc1,-7,-1,6,0.3,18%,19%,41
O=C(Nc1nnc(-c2ccc(Cl)cc2)o1)Nc1ccccc1Cl,-16,-11,17,-2.5,1%,-4.1%,-1
COc1ccc2c(c1OC)C(=O)N(c1cccc(C(F)(F)F)c1)C2,0,0,-8,1.8,0%,3.2µM*,0
Cc1nn(C)c2c1NC(=O)CS2,-10,-12,.,-5.5,.,0.4%,-2
COC(CNC(=S)Nc1ccc([N+](=O)[O-])cc1)OC,-19,-2,-12,-1.2,-12%,0.2%,6
COC(=O)CN1C(=O)[C@H]2[C@@H](c3ccc(C)o3)N3C(=O)CN(Cc4ccccc4)C(=O)[C@@]3(C)[C@H]2C1=O,-8,.,-23,-5.0,45µM*,0.5%,5
Cc1cccc(NC(=O)N2CCC(n3nnc4cc(C)ccc43)CC2)c1,-4,.,-11,-4.6,26%,3.3%,-7
O=C(CCNC(=O)c1ccco1)Nc1ccc(SC(F)F)cc1,-5,6,8,1.0,14%,-0.2%,1
CN1CCN(c2ccccc2NC(=O)c2ccc(Br)o2)CC1,-28,-9,2,-3.9,5%,-2.8%,4
Cc1cc(=O)oc2cc(OCC#N)ccc12,-8,2,-4,0.1,17%,0.2%,17
CCN(CC)c1ncnc2c1ncn2[C@H]1CN(Cc2ccco2)C[C@@H](CO)O1,-8,0,.,-2.0,.,0.9%,3
N#CC(OC(=O)c1ccccc1)c1cccc([N+](=O)[O-])c1 (centres undefined),-4,-9,.,-2.6,.,1.7%,-14

# Next section
SMILES,D2 PAM,CtBP-E1A blk,TRPV1 potentiator,D2 ag,Sfp PPTase inh,PINK1 modulator,Six1-Eya2 inh
CN(CC(=O)Nc1ccc(Cl)c(C(F)(F)F)c1)C(=O)CCNC(=O)c1ccco1,-29,2,10,-4.6,.,1.9%,0
CN1C(=O)c2ccccc2Sc2ccc(NC(=O)N3CCOCC3)cc21,-10,2,-2,-1.9,5%,-0.1%,-12
COc1cccc2c(=O)c3ccoc3n(C)c12,-34,-17,-1,-3.6,-2%&1%,0.5%,-12
Cn1cccc1C(=O)NNC(=O)COc1ccc(C#N)cc1,-6,9,12,2.0,.,-2.1%,-1
Cc1ccccc1Cn1c(-c2cncs2)nc2ccccc21,18,-1,-7,-3.5,9%,1.9%,-4
COc1ccc(C2=CC(=O)C[C@H](c3ccc(F)cc3)C2)c(F)c1F,-7,.,-12,-0.4,.,2.6%,-13
CN(C(=O)c1ccc(N2CCCCC2)c([N+](=O)[O-])c1)C1(C)CCS(=O)(=O)C1 (centres undefined),-17,-18,0,5.4,-3%,2.9%,-1
COC(=O)c1cc(S(=O)(=O)NCCc2ccc(C)cc2)c[nH]1,-5,3,15,-2.0,7%,0.6%,-10
COCCCN(C(C)=O)c1nc(-c2ccccc2)cs1,-6,13,-2,-2.0,-5%,0.4%[38.3 µM],0
CC(=O)Nc1ccc(S(=O)(=O)Nc2cccc(S(=O)(=O)N(C)c3ccccc3)c2)cc1,-6,-3,17,-1.5,.,3.3%,5
O=C(CNC(=O)c1ccco1)NC1CCCCCC1,0,-22,-8,-0.2,.,2.5%,6
O=C(Nc1nnc([C@H]2C[C@H](O)[C@@H](CO)O2)s1)Nc1ccccc1C(F)(F)F,-10,2,.,-2.3,.,0.4%,1
O=C1c2cccnc2C(Nc2ccc(Br)cc2)N1Cc1cccs1 (centres undefined),-4,-7,-27,-5.6,-18%,1.3%,-5
Cc1cc2c(cc1C)NC(c1nc3ccccc3[nH]1)C1=C(CC(C)(C)CC1=O)N2 (centres undefined),-7,-17,-8,-1.7,17%,2.9%,1
O=C(COc1ncnc2c1cnn2-c1ccccc1)Nc1ccc(S(=O)(=O)N2CCCCC2)cc1,-1,-15,-1,6.6,9%,-1.7%,-7
COc1ccc(-n2c(CNC(=O)c3cccs3)n[nH]c2=S)cc1,-13,5,?,0.2,1%,0.5%,1
CC1Cc2[nH][nH]c(=O)c2C(C2CCCC2)O1 (centres undefined),.,-5,.,.,.,0.2%,3
Cc1nc2ccccc2n1CCc1nc2c3ccccc3nc(SCC(=O)NCc3ccco3)n2n1,-10,-7,12,-0.6,?,0.0%,-8
Cc1ccc(OCCCCn2ccnc2)c(Cl)c1,-1,-6,4,2.8,1%,3.6%[38.3 µM],-4
O=C(Nc1ccc(Cl)cc1Cl)c1n[nH]c(Cn2cncn2)n1,16,0,-14,4.8,5%,0.9%,0

# Part of the list above, limited to PINK1 modulator:
canonical_smiles | PINK1 modulator
Cc1nc2ccccc2n1CCc1nc2c3ccccc3nc(SCC(=O)NCc3ccco3)n2n1 | 0.0%
Cc1ccc(OCCCCn2ccnc2)c(Cl)c1 | 3.6%[38.3 µM]

# Screening results from PubChem BioAssay.
